# GIRK2 act: GIRK2 channel activation; P48051; HEK293-GIRK2 thallium flux, Thallos fluorescence; calls only for hits at 25 µM; 63,000 compounds, 0.05% hits; AID 1259325;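 active = among the strongest 0.2% of first-round signals and kept after retests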;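 note: first round at about 10 µM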
# Target sequence (P48051 whole entry, looked up): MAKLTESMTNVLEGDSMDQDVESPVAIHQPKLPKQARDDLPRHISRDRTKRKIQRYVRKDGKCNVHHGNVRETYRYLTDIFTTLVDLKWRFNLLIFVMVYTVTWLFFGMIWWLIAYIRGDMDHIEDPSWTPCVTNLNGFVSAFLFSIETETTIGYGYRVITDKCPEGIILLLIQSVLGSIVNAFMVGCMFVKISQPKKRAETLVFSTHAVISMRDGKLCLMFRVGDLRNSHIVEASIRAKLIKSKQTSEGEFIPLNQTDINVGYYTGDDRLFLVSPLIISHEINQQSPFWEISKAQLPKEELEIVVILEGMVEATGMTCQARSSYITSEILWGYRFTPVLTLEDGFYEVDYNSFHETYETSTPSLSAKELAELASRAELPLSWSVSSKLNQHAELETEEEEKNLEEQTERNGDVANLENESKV
# Calls only; i = inactive.
smiles	GIRK2 act
CN(C)S(=O)(=O)c1ccc(-c2nc(C#N)c(N3CCN(Cc4ccccc4)CC3)o2)cc1	i
CSc1ccccc1NC(=O)C1COCC(=O)N1Cc1ccccc1 (centres undefined)	i
CC(C)NC(=O)Nc1nc2c(s1)CN(C(=O)NCc1cccs1)CC2	i
COc1ccccc1-c1nnc(NC(=O)c2ccc(Cc3ccccc3)cc2)o1	i
CCCCOc1ccc(C2CC3C4NN=C(SCC(=O)Nc5ccccc5F)N4C=CN3N2)cc1 (centres undefined)	i
O=C(COc1ccc(-n2cccn2)nn1)N1CCCC1	i
CC1CCCCC1NC(=O)c1ccc(Cn2c(=O)[nH]c3ccsc3c2=O)cc1 (centres undefined)	i
COc1ccc(S(=O)(=O)NCCC(=O)N(C)C)cc1N(C)S(C)(=O)=O	i
COc1ccc(NC(=O)CN2CCC(c3nc(-c4cccc(C)c4)no3)CC2)cc1OC	i
COc1ccc(O)c(C(=O)c2ccc(C(=O)N[C@@H]3CCCNC[C@H]3NC(=O)c3ccncc3)cc2)c1F	i
Cc1ccc(C2=NC3(CCN(Cc4cccc(C)c4)CC3)NC2=O)cc1	i
Cc1ccc(NC(=O)Cn2c(C)cc(C)c(-c3nc(-c4ccc5c(c4)OCO5)no3)c2=O)cc1C	i
Cc1cc(=O)c2cc(C(=O)O)ccc2[nH]1	i
O=C(CNC(=O)c1ccccc1)NCC#CCOc1ccc2c(c1)OCO2	i
CCOC(=O)CCNC(=O)Nc1ccccc1NC(=O)c1ccccc1OC	i
O=C(CC(c1ccccc1)c1ccccc1)N1CCC(Oc2cnccn2)CC1	i
COc1ccc(-c2ccc(N3CCN(C(=O)Cn4ccc5ccccc54)CC3)nn2)cc1	i
CCNc1nn(CC(=O)Nc2ccc(C)c(C)c2)c(N)c1-c1nc(-c2ccc(OC)cc2)no1	i
COc1c(C)cnc(Cn2cccc(-c3nc(-c4ccccc4Cl)no3)c2=O)c1C	i
CCCCCCCCCCCCCCCCCCCCCC(=O)NCCS(=O)(=O)O	i
O=C(NCC1(CO)CC1)c1ccccc1C(F)(F)F	i
COc1ccc(-c2cc3c4nn(CC(=O)Nc5ccc(C)c(F)c5)c(=O)n4ccn3n2)cc1	i
COc1ccccc1C(=O)N1CCCC(c2nnc(-c3ccccc3F)s2)C1 (centres undefined)	i
CCCOc1cc(N2CCN(C(=O)c3cccc(Cl)c3)CC2)nc(C)n1	i
CS(=O)(=O)N1CCC(CNC(=O)NCCOc2ccccc2)CC1	i
Cc1sc2ccccc2[n+]1C	i
Cc1nc2n(c(=O)c1C)C(CC(=O)N1CCC(c3nnc(-c4ccco4)s3)CC1)CS2 (centres undefined)	i
O=C(CSc1ncnc2nc(N3CCc4ccccc4C3)sc12)Nc1ccc2c(c1)OCO2	i
O=C(CSc1ccc(-c2nc(-c3ccccc3)no2)cn1)NCc1ccc2c(c1)OCO2	i
Cc1nc(-n2cccc2)sc1C(=O)N1CCN(c2ccc(-c3cccs3)nn2)CC1	i

# Some of the entries so far, with the structure last.
GIRK2 act	structure
i	COc1ccccc1C(=O)N1CCCC(c2nnc(-c3ccccc3F)s2)C1 (centres undefined)
i	CCCOc1cc(N2CCN(C(=O)c3cccc(Cl)c3)CC2)nc(C)n1

# Returning to the listing; the 2 compounds before the break are reprinted first.
smiles	GIRK2 act
O=C(CSc1ccc(-c2nc(-c3ccccc3)no2)cn1)NCc1ccc2c(c1)OCO2	i
Cc1nc(-n2cccc2)sc1C(=O)N1CCN(c2ccc(-c3cccs3)nn2)CC1	i
COc1nn(C)cc1C(=O)Nc1nnc(SCc2cccc(C(F)(F)F)c2)s1	i
COCCOC(=O)c1c(C)oc2ccc(OC(=O)c3ccc([N+](=O)[O-])cc3)cc12	i
Cc1nc(-c2ccccc2Cl)sc1CNC(=O)c1cc2ccccc2[nH]1	i
C=CCn1cnc2c(-c3cccc(F)c3)csc2c1=O	i
COc1cccc(Cn2nnc3c(=O)n(Cc4nc(-c5ccc(Cl)cc5)no4)cnc32)c1	i
COc1cccc2cc(C(=O)N3CCN(S(C)(=O)=O)CC3)oc12	i
CNCCC=C1c2ccccc2CCc2ccccc21	i
Cc1ccc(NC(=O)Cn2nc(C)cc2C(=O)N2CCOCC2)cc1	i
O=C(NCCc1ccccc1)c1nc(-c2ccncc2)cs1	i
O=C(Nc1cc(C(F)(F)F)ccc1Cl)C1CN(C(=O)c2cnccn2)C1	i
O=S(=O)(c1cccc(-c2nnc(SC/C=C/c3ccccc3)o2)c1)N1CCCC1	i
CCn1c(C)cc(=O)c2cc(C(=O)Nc3cccnc3)ccc21	i
O=C(NCc1ccc(Br)cc1)c1ccc(Oc2nccnc2N2CCOCC2)cc1	i
COc1ccc(/C=C/C(=O)Nc2cnc(-n3nc(C)c(C)c3C)nc2)cc1OC	i
CCCNC(=O)C(=O)NCCc1ccc2c(c1)CCCN2C	i
COc1ccc(C(=O)c2oc3cc(NC(=O)C(C)C)ccc3c2C)cc1	i
COc1cc(-c2nc(Cn3nnc(C(=O)Nc4ccc(Cl)cc4)c3N)c(C)o2)cc(OC)c1OC	i
COC(=O)c1ccccc1NC(=O)CSc1cc(C)nc(-c2cccnc2)n1	i
CCCCN(C)C(=O)CSc1nccnc1N1CCN(c2cccc(C)c2C)CC1	i
Cc1noc(CNC(=O)Cn2c(=O)oc3ccccc32)n1	i
CCOC(=O)c1sc2ccccc2c1S(=O)(=O)N1CCc2ccccc21	i
Cc1ccc(C)c(Cn2c(=O)c3c(nc4n(CCOCCO)c(C)c(C)n34)n(C)c2=O)c1	i
O=C(/C=C/c1cccs1)N1CCN(CC(O)c2cccs2)CC1 (centres undefined)	i
Cc1noc(C)c1CCC(=O)NCc1cccs1	i
COc1ccc(-c2cc(-c3cn[nH]c3-c3ccccn3)ccn2)cc1	i
COc1ccccc1NC(=O)NCC(C)(O)CSC (centres undefined)	i
CN1CCc2c(sc(NC(=O)COc3ccc(Cl)cc3)c2-c2nc3ccccc3s2)C1	i
Cc1cc(NC(=O)c2ccc(N3C(=O)CCC3=O)cc2)c2cc(Br)ccc2n1	i
COc1ccc(N2CCCn3c2nc2c3c(=O)n(CCN3CCCCC3)c(=O)n2C)cc1	i
O=C(NCCc1cccs1)c1c[nH]c2ccccc2c1=O	i

# New compounds follow.
smiles	GIRK2 act
Cc1oc(-c2ccccc2)nc1CSc1n[nH]c(=O)c2cc(-c3cccs3)nn12	i
COc1ccc2nc(CN3CCN(S(=O)(=O)N(C)C)CC3)[nH]c2c1	i
Cc1cccc(C(=O)CC2OC(=O)c3ccccc32)c1 (centres undefined)	i
CC1Oc2ccc(Br)cc2CN(Cc2ccc(F)cc2F)C1=O (centres undefined)	i
COc1cccc(CN(c2ccc(Cl)cc2)S(=O)(=O)c2ccc3nncn3c2)c1	i
COc1ccccc1CNC(=O)C(=O)NCc1cc(C)oc1C	i
CCCCn1c(=O)[nH]c2c(C(=O)N3CCN(c4cccc(C)c4C)CC3)snc2c1=O	i
CCc1[nH]nc(S(=O)(=O)Nc2ccc(SC)cc2)c1C(=O)OC	i
O=C(/C=C/c1ccco1)N1CCN(c2nc3c(C(F)(F)F)cccc3s2)CC1	i
O=C1CC(c2nc3ccccc3n2Cc2ccc(F)cc2)CN1Cc1ccc(F)cc1 (centres undefined)	i
CCCn1cc(S(=O)(=O)c2ccc(OC)cc2)c(=O)c2cc(F)c(N3CCOCC3)cc21	i
CCOc1ccc(CC(=O)NCCn2nc(C(F)(F)F)n(C)c2=O)cc1	i
CN(C)S(=O)(=O)c1ccc(C(=O)N2CCCC(c3nnc(-c4ccc5c(c4)OCO5)o3)C2)cc1 (centres undefined)	i
COc1ccc(NS(=O)(=O)c2ccc(N3C(=O)CCS3(=O)=O)cc2C)cc1Cl	i
Cc1nn(-c2ccccc2)c(OC(=O)Cc2ccccc2)c1S(=O)(=O)c1ccccc1	i
C=CCNC(=O)Cn1cnc2c([nH]c3ccc(C)cc32)c1=O	i
Cc1cc(C)c(S(=O)(=O)Nc2ccc3c(c2)CCCN3S(=O)(=O)c2ccccc2)cc1C	i
Cc1ccc2c(c1)C(=O)NC1(CCN(C(=O)c3cccc(Cl)c3)CC1)N2C	i
Cc1oc2c3c(ccc2c(=O)c1-c1ccccc1)OCN(C(C)C)C3	i
O=C(/C=C/c1ccccc1)N(CCc1cccs1)Cc1ccoc1	i
CC(Oc1ccccc1)C(=O)NCC#CCOc1ccc2c(c1)OCO2 (centres undefined)	i
CC(=O)Nc1nnc(-c2csc(C)n2)o1	i
CC(C)CNC(=O)/C=C/CCCCc1ccc2c(c1)OCO2	i
COc1ccccc1OCC#CCNC(=O)CSc1nc2ccccc2s1	i
Cc1ccc2nc(N(CCCn3ccnc3)C(=O)Cc3ccc(F)cc3)sc2c1	i
O=C(Nc1sc2c(c1-c1nc3ccccc3s1)CCCC2)c1ccc(Oc2ccccc2)cc1	i
COc1ccccc1Oc1coc2cc(OC(=O)C3CC3)ccc2c1=O	i
CCCCc1ccc(NC(=O)CC2Sc3ccccc3NC2=O)cc1 (centres undefined)	i
O=c1ccc(-c2cccs2)nn1Cc1ccc([N+](=O)[O-])cc1	i
Cc1onc(-c2ccccc2Cl)c1C(=O)N1CC(c2nc(-c3ccc[nH]c3=O)no2)C1	i

# By substructure, the entries above with a CF3 group
smiles	GIRK2 act
O=C(NCC1(CO)CC1)c1ccccc1C(F)(F)F	i
COc1nn(C)cc1C(=O)Nc1nnc(SCc2cccc(C(F)(F)F)c2)s1	i
O=C(Nc1cc(C(F)(F)F)ccc1Cl)C1CN(C(=O)c2cnccn2)C1	i
O=C(/C=C/c1ccco1)N1CCN(c2nc3c(C(F)(F)F)cccc3s2)CC1	i
CCOc1ccc(CC(=O)NCCn2nc(C(F)(F)F)n(C)c2=O)cc1	i

# Next section.
smiles	GIRK2 act
O=C(NCc1ccc(F)c(Cl)c1)c1nc(-c2cn(-c3ccccc3)nn2)no1	i
O=c1ccc(-c2ccc3c(c2)OCO3)nn1CCc1nc(-c2cccc(C(F)(F)F)c2)no1	i
COc1cc(/C=C2\SC(=S)N(c3ccc(F)cc3)C2=O)cc(OC)c1OC	i
CCCS(=O)(=O)N1CCc2ccc(NC(=O)c3c(C)nc4ccccn34)cc2C1	i
CCCCCCCCCC(=O)OC1C(OC2(CO)OC(CO)C(O)C2OC(=O)C(C)C)OC(CO)C(OC(=O)C(C)C)C1OC(=O)C(C)C (centres undefined)	i
COc1ccc(-c2c(C)oc3c4c(ccc3c2=O)OCN(CCc2cccs2)C4)cc1OC	i
COc1ccc(S(=O)(=O)NCCC(O)c2ccccc2)cc1OC (centres undefined)	i
Cc1cc(C)cc(C(=O)Oc2c(S(=O)(=O)c3ccccc3)c(C)nn2C(C)(C)C)c1	i
COc1ccc2c(c1)c(CC(=O)NCc1ccccc1)cn2C(=O)c1ccc(Cl)cc1	i
CSc1ccc2c(c1)N(CCC1CCCCN1C)c1ccccc1S2 (centres undefined)	i
O=C(Cc1noc2ccccc12)N1CC(c2nc(-c3ccncc3)no2)C1	i
O=C(NCCn1ncc2c(NCc3ccco3)ncnc21)c1ccc(F)cc1F	i
CC(C)(C)C(=O)N(Cc1ccsc1)Cc1ccco1	i
Cn1nc(C2CCN(C(=O)COc3ccccc3F)CC2)n(-c2ccccc2)c1=O	i
O=C(c1ccccc1Cl)N1CCN(c2ncnc3c2nnn3-c2ccccc2)CC1	i
CCOC(=O)C1=C(C)NC(=O)NC1c1ccccc1 (centres undefined)	i
Cc1cc(C)c2oc(=O)cc(CN3CCN(C/C=C/c4ccccc4)CC3)c2c1	i
Cc1ccc(CN2N=NC3C(=O)N(c4ccc(Cl)cc4)C(=O)C32)cc1 (centres undefined)	i
Cc1ccc2c(=O)c(C(=O)Nc3ccccc3)cn(CC(=O)NCc3ccccc3)c2n1	i
O=C(c1ccc(Cl)c(S(=O)(=O)N2CCCCCC2)c1)N1CCc2ccccc21	i
O=C(CCn1c(=O)[nH]c2ccsc2c1=O)NCc1ccccc1Cl	i
O=C(NCc1ccco1)NC1(c2nc(-c3ccncc3)no2)CCCCC1	i
COc1ccc(N2CC(c3nc4ccccc4n3Cc3ccc(F)cc3)CC2=O)cc1 (centres undefined)	i
COc1ccc(S(=O)(=O)N2CCC(c3nc(-c4ccc(OC(C)C)cc4)no3)CC2)cc1	i
Cc1ccccc1C(=O)NCc1ccc(C(O)c2cccs2)s1 (centres undefined)	i
O=C1c2ccccc2C(=O)N1Cc1ccc(S(=O)(=O)Nc2ccccc2F)cc1	i
COc1ccc(C(=O)c2cn(Cc3cccc(OC)c3)c3cc4c(cc3c2=O)OCCO4)cc1	i
CCOC(=O)Cc1csc(NC(=O)c2csc3nc(-c4ccc(F)cc4)cn23)n1	i
COC(=O)CCn1c(=O)c2c(nc3n(-c4ccc(C)cc4)c(C)c(C)n23)n(C)c1=O	i
CCn1cnc2c(-c3ccccc3)cn(CC(=O)Nc3cc(Cl)c(OC)cc3OC)c2c1=O	i

# Carrying on.
smiles	GIRK2 act
CCCS(=O)(=O)N1CCN=C1SCc1ccccc1F	i
O=C(Cn1cnc2c(-c3ccc(F)cc3)csc2c1=O)Nc1ccccc1C(F)(F)F	i
CCOc1ccc(CCNC(=O)Cn2ccn3nc(-c4ccccc4)cc3c2=O)cc1OCC	i
COc1ccc(S(=O)(=O)Nc2ccc3c(c2)N(S(=O)(=O)c2ccc(F)cc2)CCC3)cc1F	i
COc1ccc(-c2ccc(=O)n(CCNS(=O)(=O)c3ccc(C(C)=O)cc3)n2)cc1	i
CCN1CCc2c(sc(NC(=O)CCSc3ccccc3)c2-c2nc3ccccc3s2)C1	i
COc1ccc(CC(=O)Nc2ccc(SCC(=O)N3CCCC3)nn2)cc1	i
O=C(CCS(=O)(=O)c1ccccc1)NCCC(O)c1ccccc1 (centres undefined)	i

# From PubChem BioAssay

# The list is partial. The share of hits here may be higher or lower than overall.
